# DUX4 inh: inhibitors of DUX4-driven ZSCAN4 reporter expression, primary screen, 293T cells, Gaussia and Italica luciferase | 0.8% of 37,000 active | 293T-iDUX4 ZSCAN4-Gaussia luciferase reporter, 24 h; active compounds read low | activity change, negative = inhibition, % (test concentration not listed);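 active means -10% or lower and over 25 points stronger than a control reporter; inconclusive means -10% or lower with a smaller gap; inactive means above -10%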;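 further: 0% = median of neutral control wells and -100% = median of positive control wells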
# DUX4 inh difference: second read-out of DUX4 inh, no call of its own (marks repeat the call); Gaussia minus Italica difference, %; measured here: selective DUX4 reporter inhibition;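 worked out from the two reporters; negative = selective loss of the DUX4 reporter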
# DUX4 inh control: also measured in DUX4 inh; calls as there; activity change, negative = inhibition, %; measured here: Italica tet-on control reporter;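 0 = neutral control and -100 = positive control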
# * = called active by the depositor; ? = inconclusive; / = not tested or not shown. This is a subset, so the mix of outcomes need not match the whole.
SMILES,DUX4 inh,DUX4 inh difference,DUX4 inh control
O=C(C[C@@H]1CC[C@@H]2[C@H](COC[C@H](O)CN2S(=O)(=O)c2cccc(Cl)c2)O1)NCc1ccc2c(c1)OCO2,-5,-7,1.5
COCC(=O)Nc1ccc2c(c1)[C@@H]1C[C@H](CC(=O)N[C@@H](C)c3ccccc3)O[C@H](CO)[C@@H]1O2,0,-5,4.1
CN1C(=O)c2cc(NC(=O)c3ccc(F)c(F)c3)ccc2OC[C@H]2O[C@H](CC(=O)N3CCCCC3)CC[C@@H]21,-3,1,-3.6
CCNC(=O)C[C@H]1CC[C@H]2[C@@H](COC[C@H](O)CN2C(=O)C2CCOCC2)O1,3,4,-1.2
CCCNC(=O)N1CCC2(CC1)CN(C(=O)COC)[C@@H](CO)c1[nH]c3cc(OC)ccc3c12,18,10,8.1
O=C(NC1CCCCC1)N1CC(=O)N2[C@@H](CO)[C@H](c3ccc(-c4cccc(F)c4)cc3)[C@@H]2C1,3,-1,4.2
O=C(CN1CCOCC1)NCC[C@@H]1CC[C@H](NC(=O)Cc2ccccn2)[C@H](CO)O1,4,3,0.2
COCC(=O)N1C[C@@H](C)[C@@H](OC)CN(C)C(=O)c2ccc(NC(=O)Nc3cccc(F)c3)cc2OC[C@H]1C,-1,-5,3.3
O=C(Nc1ccc(F)cc1)N1CCCCN2[C@H](C1)[C@@H](c1ccc(-c3cccc(F)c3)cc1)[C@@H]2CO,?,/,/
COc1ccc(C(=O)N2C[C@@H]3[C@H](c4ccccc42)[C@H](CO)N3C(=O)c2ccc(F)cc2)cc1,1,-2,3.3
CN(C)C(=O)[C@H]1[C@H](CO)[C@H]2Cn3c(ccc(-c4ccccc4)c3=O)[C@@H]1N2C(=O)C1CCC1,4,-2,6.1
O=C(C[C@H]1C[C@@H]2c3cc(NS(=O)(=O)c4ccccc4)ccc3O[C@@H]2[C@H](CO)O1)NCC1CC1,-2,-5,2.3
CCN(C[C@H]1N[C@@H](CO)[C@@H]1c1ccc(C2=CCCC2)cc1)C(=O)c1cccnc1,1,1,0.1
COc1ccc(S(=O)(=O)Nc2cccc3c2O[C@@H](CN(C)Cc2ccc(C(F)(F)F)cc2)[C@H](C)CN([C@@H](C)CO)C3=O)cc1,-2,1,-3.0
COCc1cn(CC[C@H]2CC[C@H](NC(=O)Nc3c(C)noc3C)[C@H](CO)O2)nn1,4,4,0.3
Cc1ccccc1S(=O)(=O)N1CC[C@@H]2[C@H]1c1cc(Br)ccc1N(C)[C@H]2CO,8,12,-3.9
O=C(C[C@H]1CC[C@@H]2[C@H](COC[C@@H](O)CN2CC2CCOCC2)O1)N1CCOCC1,1,0,0.8
C[C@H](CO)N1C[C@H](C)[C@H](CN(C)S(=O)(=O)c2cccs2)OCc2cnnn2CCCC1=O,3,10,-6.9
O=C(Nc1ccccc1)N1CC(=O)N2[C@H](CO)[C@@H](c3ccc(-c4ccc(F)cc4)cc3)[C@@H]2C1,5,-2,7.2
O=C(NC1Cc2ccccc2C1)[C@H]1[C@H](CO)[C@H]2Cn3c(ccc(C4=CCCC4)c3=O)[C@@H]1N2CC1CC1,-4,-2,-1.4
O=C(C[C@@H]1CC[C@@H]2[C@H](COC[C@H](O)CN2S(=O)(=O)c2ccc(Oc3ccccc3)cc2)O1)NC1CCC1,-5,-10,5.1
CCN(C[C@H]1[C@H](c2ccccc2)[C@H](CO)N1C(=O)COC)S(C)(=O)=O,-2,1,-3.2
O=S(=O)(c1cccs1)N1CCCCN2[C@H](CO)[C@H](c3ccc(-c4ccccc4)cc3)[C@@H]2C1,?,/,/
CNC[C@@H]1Oc2ccc(NC(=O)CCC(F)(F)F)cc2C(=O)N([C@@H](C)CO)C[C@H]1C,-2,0,-2.0
C/C=C/c1ccc([C@@H]2[C@@H](CO)N3C(=O)CN(Cc4ccc(F)cc4)C[C@@H]23)cc1,1,-5,6.0
C[C@@H]1CN([C@@H](C)CO)C(=O)c2cc(/C=C/c3ccccc3)cnc2O[C@H]1CN(C)C(=O)C1CCOCC1,8,8,0.2
CS(=O)(=O)N1CC2(C1)[C@@H](c1ccccc1)[C@@H](CO)N2C(=O)c1ccccc1,4,5,-1.0
CC(=O)N(C)C[C@H]1[C@H](c2ccc(C3=CCCCC3)cc2)[C@H](CO)N1CC1CC1,-4,0,-3.1
O=C(C[C@@H]1CC[C@H]2[C@@H](COC[C@H](O)CN2C(=O)c2ccccc2F)O1)N1CCN(c2ccccc2)CC1,7,6,1.2
O=C(Nc1nccs1)[C@H]1[C@H](CO)[C@H]2Cn3c(cccc3=O)[C@H]2N1C(=O)C1CCC1,14,50,-36
C[C@H]1CN([C@@H](C)CO)C(=O)c2cc(NC(=O)Nc3ccccc3)ccc2O[C@@H]1CN(C)Cc1ccccc1,-3,-3,-0.1
Cc1ccc(S(=O)(=O)N2C[C@H](O)COC[C@@H]3O[C@H](CC(=O)N[C@@H]4CCN(Cc5ccccc5)C4)CC[C@H]32)cc1,0,0,0.3
COC(=O)[C@@H]1[C@@H](CO)[C@@H]2Cn3c(ccc(-c4ccccc4)c3=O)[C@@H]2N1C(=O)CC1CC1,-4,-3,-1.0
CNC(=O)C[C@H]1CC[C@@H]2[C@H](COC[C@@H](O)CN2Cc2ccccc2F)O1,3,7,-3.2
CCCNC(=O)N1CCC2(CC1)CN(C(C)=O)[C@@H](CO)c1c2c2ccc(OC)cc2n1C,7,-15,22
C/C=C/c1ccc([C@@H]2[C@@H](CO)N3C(=O)CN(C(=O)Nc4ccccc4F)C[C@@H]23)cc1,5,0,5.9

# Part of the list above in order of molar mass, descending.
SMILES,DUX4 inh,DUX4 inh difference,DUX4 inh control
Cc1ccc(S(=O)(=O)N2C[C@H](O)COC[C@@H]3O[C@H](CC(=O)N[C@@H]4CCN(Cc5ccccc5)C4)CC[C@H]32)cc1,0,0,0.3
O=C(NC1Cc2ccccc2C1)[C@H]1[C@H](CO)[C@H]2Cn3c(ccc(C4=CCCC4)c3=O)[C@@H]1N2CC1CC1,-4,-2,-1.4
O=C(Nc1ccc(F)cc1)N1CCCCN2[C@H](C1)[C@@H](c1ccc(-c3cccc(F)c3)cc1)[C@@H]2CO,?,/,/
COCC(=O)Nc1ccc2c(c1)[C@@H]1C[C@H](CC(=O)N[C@@H](C)c3ccccc3)O[C@H](CO)[C@@H]1O2,0,-5,4.1
Cc1ccccc1S(=O)(=O)N1CC[C@@H]2[C@H]1c1cc(Br)ccc1N(C)[C@H]2CO,8,12,-3.9
O=C(Nc1ccccc1)N1CC(=O)N2[C@H](CO)[C@@H](c3ccc(-c4ccc(F)cc4)cc3)[C@@H]2C1,5,-2,7.2
CCCNC(=O)N1CCC2(CC1)CN(C(C)=O)[C@@H](CO)c1c2c2ccc(OC)cc2n1C,7,-15,22
CNC[C@@H]1Oc2ccc(NC(=O)CCC(F)(F)F)cc2C(=O)N([C@@H](C)CO)C[C@H]1C,-2,0,-2.0
COC(=O)[C@@H]1[C@@H](CO)[C@@H]2Cn3c(ccc(-c4ccccc4)c3=O)[C@@H]2N1C(=O)CC1CC1,-4,-3,-1.0
O=C(C[C@H]1CC[C@@H]2[C@H](COC[C@@H](O)CN2CC2CCOCC2)O1)N1CCOCC1,1,0,0.8
C/C=C/c1ccc([C@@H]2[C@@H](CO)N3C(=O)CN(C(=O)Nc4ccccc4F)C[C@@H]23)cc1,5,0,5.9
CC(=O)N(C)C[C@H]1[C@H](c2ccc(C3=CCCCC3)cc2)[C@H](CO)N1CC1CC1,-4,0,-3.1

# More compounds.
SMILES,DUX4 inh,DUX4 inh difference,DUX4 inh control
Cc1ccc(S(=O)(=O)Nc2ccc3c(c2)C(=O)N([C@H](C)CO)C[C@H](C)[C@H](CN(C)C(=O)NC2CCCCC2)OCCCC[C@@H](C)O3)cc1,2,-2,3.8
COc1cccc(-c2cn(CC[C@@H]3CC[C@H](NS(=O)(=O)c4ccccc4Cl)[C@H](CO)O3)nn2)c1,-7,-10,3.2
O=C(C[C@@H]1CC[C@H]2[C@@H](COC[C@H](O)CN2C(=O)c2ccccn2)O1)NC1CCC1,7,4,2.7
C[C@H]1CCCCO[C@@H](CN(C)C(=O)Nc2cccc3ccccc23)[C@@H](C)CN([C@@H](C)CO)C(=O)c2cc(NC(=O)c3ccncc3)ccc2O1,0,-1,1.3
CN1C(=O)c2cc(NC(=O)c3cccs3)ccc2OC[C@H]2O[C@H](CC(=O)NCC3CC3)CC[C@@H]21,2,3,-0.3
COc1ccc(C#Cc2ccc3c(c2)[C@@H]2[C@@H](CCN2S(=O)(=O)c2ccccc2F)[C@@H](CO)N3C)cc1,6,3,3.1
C[C@H](CO)N1C[C@H](C)[C@H](CN(C)C(=O)CCC(F)(F)F)OCc2cnnn2CCCC1=O,4,3,1.4
C[C@@H]1CN([C@@H](C)CO)S(=O)(=O)c2ccc(-c3ccc(F)cc3)cc2O[C@@H]1CN(C)Cc1ccccc1C(=O)O,3,0,2.6
CCCN1[C@@H]2c3cccc(=O)n3C[C@H]1[C@H](CO)[C@H]2C(=O)Nc1ccccc1,3,7,-4.0
CC(=O)N1[C@H](CO)[C@H]2c3ccccc3N(S(=O)(=O)c3cccc(C)c3)C[C@H]21,3,0,2.6
COc1ccc(-c2ccc([C@H]3[C@@H](CO)N(C(=O)CN(C)C)[C@H]3C#N)cc2)cc1,-5,3,-8.2
CN(C)C(=O)c1cccc(-c2ccc(C3[C@@H]4CN(S(=O)(=O)c5cccc(Cl)c5)C[C@H]3N4)cc2)c1 (stereo partly specified),-28*,-26*,-2.3*
CN(C)c1ccc2c(c1)[C@@H]1C[C@@H](CC(=O)NCc3ccccn3)O[C@@H](CO)[C@@H]1O2,11,7,3.8
C[C@@H]1CCCCO[C@@H](CN(C)C(=O)NC2CCCCC2)[C@@H](C)CN([C@@H](C)CO)C(=O)c2cc(NC(=O)Nc3cccc4ccccc34)ccc2O1,-4,-9,5.0
C[C@H]1CN([C@@H](C)CO)C(=O)c2cccc(NC(=O)c3ccncc3)c2O[C@@H]1CN(C)Cc1ccc2c(c1)OCO2,-4,-4,0.0
O=C(C[C@H]1CC[C@@H]2[C@H](COC[C@H](O)CN2C(=O)Nc2cccc(F)c2)O1)NCCCN1CCOCC1,2,-8,10
C[C@H](CO)N1C[C@H](C)[C@H](CN(C)C(=O)NC2CCCCC2)Oc2ccc(NC(=O)CCN3CCOCC3)cc2CC1=O,-5,-2,-2.5
CCCNC(=O)N1CC2(CN(S(=O)(=O)c3cccc(OC)c3)C2)c2c(n(C)c3cc(OC)ccc23)[C@@H]1CO,?,/,/
C[C@@H](NC(=O)C[C@@H]1C=C[C@H](NC(=O)CN2CCOCC2)[C@H](CO)O1)c1ccccc1,4,2,1.9
C[C@@H]1CN([C@H](C)CO)C(=O)CCCn2nncc2CO[C@H]1CN(C)C(=O)c1ccc(N2CCN(C)CC2)cc1,-3,1,-3.1
CO[C@@H]1CN(C)C(=O)c2ccc(NC(C)=O)cc2OC[C@@H](C)N(Cc2cccc(F)c2)C[C@H]1C,-5,-9,4.0
O=C(Nc1ccc(F)cc1)N1CCCCN2[C@H](C1)[C@@H](c1ccc(C#CC3CC3)cc1)[C@@H]2CO,?,/,/
CCC(=O)N1CC2(C1)CN(Cc1cc(F)ccc1F)[C@@H](CO)c1c2c2ccc(OC)cc2n1C,14,10,3.6
CCS(=O)(=O)N[C@H]1CC[C@H](CC(=O)NCc2ccc(Cl)cc2)O[C@H]1CO,8,7,0.7
Cc1ccc(CN2CC(=O)N3[C@H](CO)[C@@H](c4ccc(Br)cc4)[C@@H]3C2)cc1,2,-9,10
N#Cc1cccc(-c2ccc(C3[C@H]4CNC[C@@H]3N4Cc3cccc(-c4ccncc4)c3)cc2)c1 (stereo partly specified),-5,-3,-1.0
N#C[C@H]1[C@@H](c2ccc(C3=CCCCC3)cc2)[C@@H](CO)N1C(=O)C1CCOCC1,4,5,-0.7
CNC(=O)C[C@H]1CC[C@@H]2[C@@H](COc3ccc(NC(=O)c4cscn4)cc3C(=O)N2C)O1,1,4,-3.2
COc1ccccc1CNC(=O)C[C@@H]1C[C@@H]2c3cc(NC(=O)Nc4ccc(C(F)(F)F)cc4)ccc3O[C@@H]2[C@@H](CO)O1,3,-2,4.9
COc1cc(CN2CC3(CCN(C(=O)Nc4c(C)noc4C)CC3)c3c(n(C)c4cc(OC)ccc34)[C@H]2CO)cc(OC)c1,-7,3,-10
COc1ccc2c3c(n(C)c2c1)[C@@H](CO)N(C(=O)Cc1ccccc1)CC31CN(C)C1,4,7,-3.4
O=C(C[C@H]1C[C@@H]2c3cc(NS(=O)(=O)c4ccc(F)cc4)ccc3O[C@@H]2[C@@H](CO)O1)NCc1ccc(Oc2ccccc2)cc1,?,/,/
CCS(=O)(=O)Nc1ccc2c(c1)C(=O)N(C)[C@@H]1CC[C@@H](CC(=O)OC)O[C@@H]1CO2,-2,-2,0.4
CCCC#Cc1cnc2c(c1)C(=O)N([C@H](C)CO)C[C@H](C)[C@H](CN(C)Cc1ccc3c(c1)OCO3)O2,-1,0,-0.3
COC(=O)C[C@H]1C[C@@H]2c3cc(NC(=O)NC4CCCCC4)ccc3O[C@@H]2[C@@H](CO)O1,11,12,-0.7
CCC(=O)N1[C@@H]2c3ccc(C4=CCCCC4)c(=O)n3C[C@@H]2[C@@H](CO)[C@@H]1C(=O)NCc1ccc(F)cc1,5,-1,6.6
C[C@@H]1CN([C@@H](C)CO)C(=O)Cc2cc(NC(=O)CCCCCC(=O)Nc3ccccc3N)ccc2O[C@@H]1CN(C)S(=O)(=O)c1cccs1,-3,-2,-0.6
